PMP22 txn prim: modulates PMP22 transcription in S16 Schwann cells; S16 Pmp22-F2sN Schwann cells (luciferase reporters placed in the Pmp22 gene), FLuc/NLuc coincidence luminescence, 24 h; Potency, µM (titrated, usually from 57.5 µM), inactives show top-dose activity change, negative = inhibition, actives largely listed as inhibitors; actives 2% (n = 43,000); AID 1508649; active = clear falling dose curves in both reporters; inconclusive = both reporters move, but less clearly or upward; inactive = either reporter flat; the % is the NLuc reporter signal; further: on the % scale 0 is the no-effect control and ±100 the full control effect; some results filed as inactive show a strong effect at the top dose
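qHTS, 1536-well. Cells seeded, compounds added by pin tool, 24 h 37C. Nano-Glo reagent 1 (lysis/FLuc), 10 min RT, read; Stop&Glo, 10 min RT, read NLuc.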
HTT prom inh: inhibits huntingtin promoter activity; HEK293 HTT promoter firefly luciferase reporter (activity 0% = vehicle and -100% = no light), 24 h; Potency, µM (highest dose often 57.5 µM), for the others: top-dose activity change, negative = inhibition, most hits filed as inhibitors; actives 0.93% (n = 48,000); active means well fitted inhibition curve with a large enough effect; inconclusive means small, poorly fitted or top-dose-only effect; inactive means no such curve, though single readings can be large or run the other way; further: nearly all actives have a fitted effect of over 50% in size
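Firefly luciferase signal from promoter-reporter HEK293 cells was scaled between vehicle (0%) and zero RLU (-100%). Compounds were tested at final concentrations of up to 57.5 uM over 24 h at 37 degrees C. PTC124 at 50 uM final served as control inhibitor.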
An asterisk follows results filed as active; ? = inconclusive; . = not tested or not shown; [ ] = another dose, or the depositor's remark. Potency means the concentration at half of the fitted maximal effect. No enrichment for hits, and some 2.4% of all compounds hit somewhere here.

SMILES | PMP22 txn prim | HTT prom inh
COc1ccc(C(=O)O)cc1Nc1nc2ccc(C)cc2n2cnnc12 | 3.7% | -10.1%
Cc1ccc2sc(N3CCN(C(=O)C4COc5ccccc5O4)CC3)nc2c1C (stereo not drawn) | 1.4% | -29.5%
CC1Cc2ccccc2N1S(=O)(=O)c1nnc(NC(=O)c2ccccc2)s1 (stereo not drawn) | 9.2% | -23.0%
Cn1c2ccccc2c2c3c(c4c5ccccc5n(CCC#N)c4c21)CNC3=O | . | ?
O=C(CSc1cn(CC(=O)N2CCCCCC2)c2ccccc12)Nc1ccccc1F | ? | ?
COc1ccccc1Nc1nc2ccc(Cl)cc2nc1-n1nc(C)cc1C | -18.9% | 12.7%
O=C(CSc1ncc2c(n1)-c1ccc(Cl)cc1N(Cc1ccccc1)S2(=O)=O)Nc1ccccc1C(F)(F)F | 5.7% | 16.1%
COCCCNC(=O)c1ccc(Cn2c(=O)c3cccn3c3cccnc32)cc1 | ? | -17.9%
CCC1CN(CC(=O)NCc2cccc(Br)c2)c2ccccc2S1 (stereo not drawn) | ? | -29.1%
O=C(CSc1nc2cc3ccccc3cc2[nH]1)Nc1ccc(F)cc1 | -16.1% | -24.1%
CCn1c(SCC(=O)c2ccc([N+](=O)[O-])cc2)nnc1-c1ccc(Cl)cc1 | -37.9% | -7.4%
CC1CCc2c(sc3nnn(Cc4ccc(F)cc4)c(=O)c23)C1 (stereo not drawn) | -10.6% | ?
COc1cccc(NC(CNS(=O)(=O)c2ccc(Cl)cc2)c2ccccc2)c1 (stereo not drawn) | ? | ?
Cc1ccsc1CN(C(=O)COc1ccc(Cl)cc1)C1CCS(=O)(=O)C1 (stereo not drawn) | -13.4% | -17.8%
CCC(=O)N1CCc2cc(S(=O)(=O)NC(C(=O)NCCc3ccc(OC)c(OC)c3)C(C)C)ccc21 (stereo not drawn) | 2.9% | -11.9%
COc1ccc(-n2ncc3c2ncn2nc(-c4ccc(OC)c(OC)c4)nc32)cc1 | 1.1% | -19.0%
Cc1cccc(C)c1NC(=O)CN1C(=O)c2cccc3cccc1c23 | 1.3% | -21.4%
O=C(CSc1nc2c([nH]c3ccccc32)c(=O)n1-c1cccc(Cl)c1)NCc1ccccc1 | ? | -23.8%
O=C(CCCCn1c(=O)c2ccccc2n(Cc2ccc(Cl)cc2)c1=O)NCc1ccccc1Cl | ? | ?
N#C/C(=C\c1ccc(Cl)cc1Cl)c1nc(-c2cccc(Cl)c2)cs1 | -2.8% | 6.0%
COc1ccc2c(c1)CCc1c(C(=O)Nc3ccc(OC)cc3OC)noc1-2 | 16.9% | -10.0%
Cc1cccc(-c2nc3c4ccccc4n(Cc4cccc(Cl)c4)c(=O)n3n2)c1 | -1.8% | -14.1%
Cc1ccc(S(=O)(=O)c2cn(CC(=O)Nc3ccc(Cl)cc3)c3ccc(F)cc3c2=O)cc1C | ? | -13.7%
Cn1nnnc1SCCCNCc1cc(Br)ccc1OCc1ccccc1F | ? | ?
Cc1ccc(CNC(=O)c2ccc(Cn3c(SCc4ccc(F)cc4)nc4cccnc43)cc2)o1 | -40.4% | 1.3%
COc1ccccc1NCc1cccn1-c1nnc(N2CCCCCC2)s1 | ? | ?
COc1ccc(NC(=O)C2CCN(S(=O)(=O)c3cc(-c4noc(C)n4)ccc3C)CC2)cc1 | 6.4% | ?
CCOc1cc(/C=C(\C#N)C(=O)Nc2ccc(C)cc2)ccc1OCc1cc(=O)n2nc(CC)sc2n1 | -2.4% | -5.2%
CC1=C(C(=O)Nc2ccccc2)C(c2ccc(O)cc2)n2nc(-c3ccc(Cl)cc3)nc2N1 (stereo not drawn) | ? | ?
CCc1cnc2c(c1SCC(=O)Nc1ccc(C(=O)OC)cc1)c(=O)n(C)c(=O)n2C | -18.0% | -6.2%
CCn1cc(C(=O)N2CCN(c3ccccc3OC)CC2)c(=O)c2cc(S(=O)(=O)N3CCC(C)CC3)ccc21 | ? | -6.2%
CCOC(=O)c1cc2c(=O)n3ccccc3nc2n(CCOC)c1=NC(=O)C(C)(C)Oc1ccc(Cl)cc1 | -10.5% | -6.8%
COc1ccc(CCNc2nc3cc(OC)c(OC)cc3c3nc(-c4cccnc4)nn23)cc1OC | -23.9% | -10.8%
CCOc1ccc(/C=C/c2nc(C#N)c(N3CCN(CC)CC3)o2)cc1 | -3.7% | -0.2%
Cc1cc(C(C#N)c2ccc(Cl)cc2)c(Cl)cc1NC(=O)c1cc(I)cc(I)c1O (stereo not drawn) | . | ?
CCOC(=O)N1CCC(NC(=O)c2cnn(-c3cccc(C)c3)c2C2CCN(C(=O)OC(C)(C)C)CC2)CC1 | -14.8% | 4.7%
Cc1c(C(=O)NCc2cccc(Cl)c2)sc2ncnc(N(C)C3CCCCC3)c12 | -1.2% | ?
CC(=O)c1c(C)n(-c2ccc(Cl)cc2)c2ccc(OC(=O)COc3ccccc3)cc12 | ? | -23.5%
COc1ccc(CCNC(=O)CCCCn2c(=O)c3ccccc3n(CC(=O)Nc3ccccc3C)c2=O)cc1OC | -2.2% | 0.6%
CN(Cc1ccccc1)S(=O)(=O)c1nnc(NC(=O)c2ccccc2)s1 | -4.5% | 1.6%
O=C(Nc1cccc(F)c1F)C1CCN(c2ncccn2)CC1 | -9.5% | -3.4%
O=C(COc1ccccc1F)Nc1nnc(SCc2cc(=O)n3ccccc3n2)s1 | 1.7% | -2.8%
Fc1ccc(-c2cc(-c3nc(-c4ccc(Cl)cc4)no3)[nH]n2)cc1 | 4.2% | -15.5%
CCN1CCC(N(Cc2ccc(F)cc2)C(=O)Nc2ccc(C)c(F)c2)CC1 | 17.1% | -9.6%
Cc1cc(C)cc(-n2c(SCC(=O)Nc3ccccc3F)nc3c(oc4ccccc43)c2=O)c1 | -8.1% | -17.9%
COc1ccc(CNC(=O)CCc2nc(-c3ccc(C)cc3)no2)c(OC)c1 | 15.9% | ?
CCc1ccccc1NC(=O)CC1Sc2ccc(C(F)(F)F)cc2NC1=O (stereo not drawn) | -8.5% | -8.2%
CCOc1ccc(CNC(=O)CCc2cn(CC)c3ccccc23)cc1 | -4.1% | -7.8%
Cc1ccc(-c2c3c(=O)n(C)c(=O)n(C)c3c3c(C)nc4ccccc4n23)cc1 | 4.5% | -11.3%[11.5 µM]
CC(=O)N1c2ccc(S(=O)(=O)NCC3CCC(C(=O)Nc4ccc(C)cc4)CC3)cc2CC1C (stereo not drawn) | -28.6% | ?
(next part)
SMILES | PMP22 txn prim | HTT prom inh
COc1cccc(CNC(=O)c2nc(Cn3nc(C)c(Br)c3C)no2)c1 | -2.6% | -28.0%
COc1ccc(-c2nc3scc(CCNS(=O)(=O)c4ccc(F)cc4F)n3n2)cc1OC | -7.4% | -23.2%
Cc1ccc(NS(=O)(=O)c2ccc3[nH]c4c(c3c2)CCCCC4)cc1 | ? | ?
NC(=O)CC[C@@H](N)C(=O)O | . | -5.8%
CCOC(=O)c1c(C)[nH]c(CCC(=O)NCc2cccc(OC)c2)c1C | -27.8% | -11.9%
Cc1cccc(C(=O)Nc2ccc3nc(SCCOc4ccccc4)sc3c2)c1 | ? | -6.0%
O=C1C(c2ccc(F)cc2)N(Cc2ccccc2Cl)C(=O)CN1C1CCCCC1 (stereo not drawn) | -2.5% | -28.1%
COc1ccc(C(c2c(C)n(C)n(-c3ccccc3)c2=O)c2c(C)n(C)n(-c3ccccc3)c2=O)cc1O | 14.6% | -14.4%
COc1ccccc1-c1cc(C(=O)Nc2sc3c(c2C#N)CCCC3)no1 | 9.8% | 1.8%
CCOc1ccccc1CNC(=O)c1ccc(NC(=O)N2CC(C)Sc3ccccc32)cc1 (stereo not drawn) | ? | ?
O=C(NCc1ccccc1Cl)c1ccc(NC(=O)N2CCSc3ccccc32)cc1 | ? | -21.0%
Cc1cc(C)cc(-n2ccnc2SCC(=O)Nc2ccc(C)cc2C)c1 | ? | -9.3%
Cc1cccc(Cn2cnc3c(cnn3-c3ccc(Cl)cc3)c2=O)c1 | ? | -9.7%
Cc1cccc(CCNC(=O)C2CCC(CNS(=O)(=O)c3c(C)cc(C)cc3C)CC2)c1 (stereo not drawn) | ? | -24.7%
C[C@H]1C[C@H](O)c2ccsc2S1(=O)=O | . | -0.2%
Cc1ccc(C)c(NC(=O)Cn2cc(S(=O)(=O)Cc3cccc(Cl)c3)c3ccccc32)c1 | -13.5% | -12.4%
CCSc1nc(-c2ccccc2)nc2c1Cc1c(CO)cnc(C)c1O2 | 1.1% | -14.3%
COc1ccc(NC(=O)CSc2oc(-c3ccc(F)cc3)nc2S(=O)(=O)c2ccc(C)cc2)c(OC)c1 | ? | -7.1%
COc1cc2c(cc1OC)C(COc1ccc(C(C)C)cc1)N(C(=O)COc1ccccc1)CC2 (stereo not drawn) | ? | ?
CCC(C(=O)Nc1cc(C(F)(F)F)ccc1Cl)n1nc(C)c2sc3ccccc3c2c1=O (stereo not drawn) | -17.0% | -9.4%
CC1CCN(S(=O)(=O)c2cccc(C(=O)NC3CCS(=O)(=O)C3)c2)CC1 (stereo not drawn) | -11.4% | -31.1%
CCOc1ccc(NC(=O)C(C)n2c(=O)cc(C)c3c(C)nn(-c4ccccc4)c32)cc1 (stereo not drawn) | -11.6% | 0.0%
Cc1ccccc1OCC(=O)Nc1ccc2[nH]c(=O)sc2c1 | ? | -9.0%
O=C(c1ccc(F)cc1)C1CCN(CCn2c(=S)[nH]c3ccccc3c2=O)CC1 | . | -2.3%
O=c1[nH]c(=O)n(C2CCCCC2)c(O)c1C1=Nc2ccccc2SC(c2ccccc2)C1 (stereo not drawn) | -31.5% | 28.1%
Cc1ccc(NC(=O)c2c(NC(=O)Cc3ccccc3)sc3c2CCC3)cc1 | -13.1% | -10.2%
Cc1ccc(NC(=O)CC(C)S(=O)(=O)c2ccc3c(c2)NC(=O)CO3)c(C)c1 (stereo not drawn) | -29.0% | 19.4%
CCCCNC(=O)C1CCC(Cn2c(=O)c3sccc3n(CC(=O)Nc3ccccc3)c2=O)CC1 (stereo not drawn) | ? | -5.9%
Cc1cc(OCCn2c(CCNC(=O)C3CCCCC3)nc3ccccc32)ccc1Cl | ? | ?
Cc1nn(CCCC(=O)Nc2cc(C(F)(F)F)ccc2Cl)c(=O)c2c1sc1ccccc12 | -5.7% | 3.9%
CCCCSCCCNC(=O)CN1C(=O)c2cccnc2Oc2ccc(Cl)cc21 | -13.9% | 2.6%
CCCCN(CCN(CCCC)C(=O)N1CCOCC1)C(=O)N1CCOCC1 | . | -8.4%
O=C(Nc1cc(Cl)ccc1Cl)c1ccc2c(c1)N(Cc1cccc(Cl)c1)C(=O)c1ccccc1S2=O (stereo not drawn) | -0.9% | -18.7%
CCn1cc(S(=O)(=O)c2cccc(C)c2)c(=O)c2cc(F)c(N3CCCCC3C)cc21 (stereo not drawn) | 9.1% | -10.9%
CCC1CN(C(=O)N2CCC(C(=O)NCCc3ccc(Cl)cc3)CC2)c2ccccc2O1 (stereo not drawn) | ? | ?
COc1cccc(NC(=O)CSc2cc(C)c3ccccc3n2)c1 | ? | ?
COc1ccc(C(=O)N(Cc2ccco2)Cc2ccco2)cc1 | 33.0% | -1.2%
Cc1cccc(NC(=O)CSc2nc3ccc(NC(=O)c4ccccc4)cc3s2)c1 | -49.8% | -11.4%
Cc1nn(CC(=O)NCc2cccc(Br)c2)c(=O)c2c1sc1ccccc12 | -4.1% | -1.5%
Cc1ccc(OCC(=O)N(Cc2sccc2C)C2CCS(=O)(=O)C2)cc1 (stereo not drawn) | -7.2% | -8.0%
O=C(Nc1ccc(F)c(Cl)c1)N1CCN(C(=O)c2nsc3ccccc23)CC1 | 0.6% | ?
CC(=O)c1ccc(NC(=O)CN(C)S(=O)(=O)c2cnc[nH]2)cc1 | -7.6% | -10.2%
COc1ccc(-n2c(SCC(=O)Nc3cc(C)cc(C)c3)nc3c(oc4ccccc43)c2=O)cc1 | -31.2% | -4.4%
CCOC(=O)C1CCN(c2ncnc3c2c(-c2ccccc2)cn3-c2ccc(C)c(Cl)c2)CC1 | 12.6% | -14.0%
COC(=O)C1C2CC3c4[nH]c5cc(OC)ccc5c4CCN3CC2CC(OC(=O)c2cc(OC)c(OC)c(OC)c2)C1OC (stereo not drawn) | . | -6.6%
Cc1cccc(C(=O)N2CCc3cc(CNS(=O)(=O)c4cccs4)ccc32)c1 | ? | ?
COc1ccc(-c2nnn3c2nc(NCc2ccc(C)cc2)c2ccccc23)cc1 | 1.1% | -8.2%
Cc1ccc2c(=O)c3cccc(CC(=O)O)c3oc2c1C | . | ?

Source: PubChem
